# Screening data from PubChem BioAssay.
# LASV entry inh – inhibitors of Lassa virus binding or cell entry | 300,000 tested, 1.2% active | Potency, µM (highest dose often 37.9 µM), for the others: top-dose activity change, negative = inhibition, usual class: inhibitors | Lassa virus pseudotype entry inhibition, cell reporter; control for the full effect not named in the record | AID 540256; active means well fitted inhibition curve with a large enough effect; inconclusive means small, poorly fitted or top-dose-only effect, or effect the other way; inactive means flat fitted curve, though single readings scatter; tested in HEK293 cells; also: % is scaled to controls: 0 for no effect and ±100 for the full control effect; nearly all actives have a fitted effect of over 50% in size; luciferase read-out
# MARV entry inh – Marburg virus entry inhibition; 300,000 tested, 1.8% active; Potency, µM (doses to about 37.8 µM), for inactives: at the highest dose activity change, negative = inhibition, hits mostly inhibitors; Marburg virus pseudotyped entry inhibition, cell reporter; control for the full effect not named in the record; about a third of the inactives were read at about 46 µM; active = well fitted inhibition curve with a large enough effect; inconclusive = small, poorly fitted or top-dose-only effect, or effect the other way; inactive = flat fitted curve, though single readings scatter; tested in HEK293 cells; about a fifth of its hits are not listed in these tables; also: % is scaled to controls: 0 for no effect and ±100 for the full control effect; luciferase read-out
# NS1 inh – inhibitors of influenza NS1 protein function. S. cerevisiae slowed by influenza A NS1, growth recovery by OD600. 270,000 tested, 0.4% active. AID 2326. Potency, µM (doses to about 46.1 µM), for the others: top-dose activity, positive = more growth; also: actives are rising curves; nearly all actives have a fitted effect of over 50% in size
#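 OD600 was taken as the measure of yeast growth restored by compound in an NS1-expressing S. cerevisiae strain. Cells had been washed out of glucose medium and diluted 1:100 into galactose -URA medium, pH 6.0.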
# SARS PLP yeast – inhibitors of SARS-CoV papain-like protease in yeast. S. cerevisiae expressing SARS-CoV PLpro, growth rescue; control for the full effect not named in the record. Potency, µM (top dose mostly 32.9 µM), for inactives: at the highest dose activity, positive = growth rescue. 330,000 tested, 0.19% active. AID 485353; also: 0% is about no effect; nearly all actives have a fitted effect of over 55% in size; growth read by luminescence after 48 h
# StopGo reporter – FMDV 2A StopGo reporter, luciferase signal; human cells with a luciferase reporter of 2A StopGo recoding; control for the full effect not named in the record; Potency, µM (titrated, usually from 57.9 µM), for inactives: top-dose signal change, negative = less light; 410,000 tested, 1.2% active; AID 1159524; active = well fitted falling curve with a large enough effect; inconclusive = small, poorly fitted or top-dose-only effect; inactive = no such curve, though single readings can be large or run the other way; tested in HEK293T cells; also: % is scaled to controls: 0 for no effect and ±100 for the full control effect; nearly all actives have a fitted effect of over 45% in size; luciferase light after 4 h
# Cruzain inh noDet – blocks cruzain activity in detergent-free assay; P25779; Potency, µM, without a hit: max response, negative = inhibition, usual class: inhibitors; AID 1476; purified cruzain, Z-FR-AMC fluorescence, no detergent; 200,000 tested, 2.3% active; active = well fitted curve in the direction sought with a large enough effect; inconclusive = small, poorly fitted or top-dose-only effect, or another doubt; inactive = no such curve, though single readings can be large; an effect the other way counts as inactive or inconclusive;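 also: plate controls were enzyme without inhibitor for no effect and buffer without enzyme for full effect; nearly all actives have a fitted effect of over 40% in size; top concentration of the series not given in the record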
# Target sequence (P25779 123-467 limits assumed): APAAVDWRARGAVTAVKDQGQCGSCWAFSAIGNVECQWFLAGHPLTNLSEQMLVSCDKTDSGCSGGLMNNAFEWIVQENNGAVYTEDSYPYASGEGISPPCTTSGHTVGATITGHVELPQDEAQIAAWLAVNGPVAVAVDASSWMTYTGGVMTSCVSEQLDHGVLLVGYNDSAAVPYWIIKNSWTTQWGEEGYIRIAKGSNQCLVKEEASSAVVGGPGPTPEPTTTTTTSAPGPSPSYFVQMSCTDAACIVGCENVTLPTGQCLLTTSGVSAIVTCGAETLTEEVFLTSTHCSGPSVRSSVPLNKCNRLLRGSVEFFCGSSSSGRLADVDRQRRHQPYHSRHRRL
#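 Purified cruzain at 1.5 nM, pre-incubated 15 min with compound at room temperature in 100 mM sodium acetate pH 5.5, 5 mM DTT, 0.00005% Triton X-100. Reaction started with 2 uM Z-FR-AMC; AMC fluorescence increase over 60 s gives rate.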
# Cruzain inh Det – blocks cruzain activity in presence of Triton detergent. Potency, µM, without a hit: max response, negative = inhibition, usual class: inhibitors. 200,000 tested, 0.43% active. purified cruzain, Z-FR-AMC fluorescence, 0.01% Triton; active = well fitted curve in the direction sought with a large enough effect; inconclusive = small, poorly fitted or top-dose-only effect, or another doubt; inactive = no such curve, though single readings can be large; an effect the other way counts as inactive or inconclusive;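 also: plate controls were neutral wells for no effect and buffer without enzyme for full effect; nearly all actives have a fitted effect of over 40% in size; top concentration of the series not given in the record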
#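 15 min RT preincubation of 1.5 nM cruzain with compound, then 2 uM Z-FR-AMC added; kinetic AMC fluorescence, 60 s delta. Triton X-100 0.01%, pH 5.5.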
# RE007 growth inh – less growth of the S. pombe RE007 Vpr strain | Potency, µM (top dose mostly 92.2 µM), without a hit: top-dose activity change, negative = less growth | AID 651644 | S. pombe RE007 Vpr strain, BacTiter-Glo ATP luminescence, 24 h; control for the full effect not named in the record | 360,000 tested, 0.21% active; active = well fitted falling curve with a large enough effect; inconclusive = small, poorly fitted or top-dose-only effect; inactive = no such curve, though single readings can be large or run the other way;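 also: % is scaled to controls: 0 for no effect and ±100 for the full control effect; nearly all actives have a fitted effect of over 50% in size; the assay follows cell death caused by Vpr and the record does not say whether a fall means rescue or toxicity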
#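 Fission yeast strain RE007, carrying one chromosomally integrated HIV-1 vpr copy, was seeded at OD 0.01 in PMG+AL medium with 23 nL pinned compound. After 24 h at 30 °C and 99% humidity, viability was read by BacTiter-Glo luminescence.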
# Numbers without * were called inactive; ? = inconclusive; nt = no result given; & = joins results of further samples; [ ] = another dose, or the depositor's remark. Unless noted, calls follow the shape of the dose curve; as a rule, active means well fitted rising curve with a large enough effect; inconclusive means small, poorly fitted or top-dose-only effect; inactive means no such curve, though single readings can be large or run the other way. Potency is read from the fitted curve at half-maximal effect.
1) O=C(Nc1nnc(SCC(=O)N2CCOCC2)s1)C1CC(=O)N(c2ccccc2)C1 (stereo not given)
2) CCOc1cc(NC(=O)C2CCCO2)c(OCC)cc1NC(=O)C1CC1 (stereo not given)
3) Cc1ccc(NC(=O)C2CC(=O)N(C(C)c3ccccc3)C2)cc1 (stereo not given)
4) CCCNC(=O)c1ccc2c(c1)nc1n2CCCCC1
5) CCN(CC)c1ccc(C=Nc2cc(C)cc(C)c2)c(O)c1
6) c1ccc2c(Nc3nc(N4CCOCC4)c4ccccc4n3)cccc2c1
7) Cc1ccc(S(=O)(=O)Nc2ccc(C(OC(=O)c3ccccc3[N+](=O)[O-])(C(F)(F)F)C(F)(F)F)cc2)cc1
8) Cn1c(=O)[nH]c(=O)c2c1nc(N1CCCC1)n2CCSc1nc2ccccc2[nH]1
9) CCOC(=O)Nc1sc2c(c1C(=O)OCC)CCC2
10) O=C(CSc1nnc(-c2ccc(F)cc2)o1)c1ccc2c(c1)OCCO2
entry no.	1	2	3	4	5	6	7	8	9	10
LASV entry inh	4.8%[46.1 µM]	-15.7%	-3.5%	17.0%[46.1 µM]	-10.0%	?	?	nt	7.6%	-1.7%
MARV entry inh	-1.2%[46.1 µM]	6.2%	-0.4%	nt	19.8%	?	?	nt	15.7%	-3.0%
NS1 inh	9.7%	-6.4%	nt	nt	2.6%	-34.0%	30.6%	-5.9%	-48.1%	-6.0%
SARS PLP yeast	0.9%	-3.6%	7.1%	nt	4.7%	-129.7%	-22.7%	2.7%	-1.2%	-2.5%
StopGo reporter	-0.3%	-20.5%	6.8%	3.2%	-5.1%	28.2µM*	?	nt	-19.5%	-11.3%
Cruzain inh noDet	nt	6.4%	nt	0.1%	2.0%	-8.4%	-4.2%	7.2%	1.7%	12.6µM*
Cruzain inh Det	nt	1.7%	nt	3.1%	-10.5%	-7.6%	7.7%	5.6%	-1.6%	1.8%
RE007 growth inh	4.2%	12.0%	5.4%	nt	-16.4%	-10.4%	15.0%	nt	-9.3%	-15.3%

11) Cc1ccc(C)c(NC(=O)CCN2CC(C)CC(C)C2)c1 (stereo not given)
12) CCN(CC)C(=O)CSc1nc(-c2ccccc2F)nc2c1Cc1c(CO)cnc(C)c1O2
13) CCc1ccccc1NC(=O)CC(O)(C(=O)OC)C(F)(F)F (stereo not given)
14) CCCN(CCC)CCNC(=O)C(NS(=O)(=O)c1ccc2c(c1)CCC(=O)N2)c1ccccc1 (stereo not given)
15) N#Cc1nc(Cc2ccccc2)oc1NCCN1CCOCC1
16) CCOC(=O)c1ccc(NC(=O)CSc2nnc(Cn3c(=O)sc4ccccc43)n2C)cc1
17) O=C1NC(Cc2c[nH]c3ccccc23)C(=O)N1Cc1cccc2ccccc12 (stereo not given)
18) O=C(O)CCn1c(SCc2cc(=O)n3ccccc3n2)nc2ccsc2c1=O
19) COc1ccccc1-c1c(C)nn2c(N3CCN(Cc4ccccc4)CC3)cc(C)nc12
20) COc1ccc(C(=O)Nc2c(C(C)(C)C)nn(C)c2C(C)(C)C)cc1
entry no.	11	12	13	14	15	16	17	18	19	20
LASV entry inh	nt	-16.6%[46.1 µM]	-4.7%	-1.5%	1.1%	6.7%	7.2%	2.2%	nt	4.6%
MARV entry inh	nt	nt	13.8%	?	?	-10.4%	-14.2%[46.1 µM]	?	nt	-7.2%
NS1 inh	-4.3%	nt	-5.3%	-2.2%	4.7%	-4.0%	3.8%	nt	-61.9%	-3.5%
SARS PLP yeast	-2.7%	nt	0.3%	0.3%	3.7%	-16.9%	14.1%	1.1%	-24.9%	-0.3%
StopGo reporter	-1.7%	-25.0%	nt	-5.2%	nt	2.8%	0.0%	-16.3%	?	-5.4%
Cruzain inh noDet	nt	?	11.2%	?	3.3%	15.0%	-19.5%	nt	3.2%	nt
Cruzain inh Det	nt	-5.0%	5.3%	?	4.7%	0.5%	-9.3%	nt	1.0%	nt
RE007 growth inh	-3.1%	nt	-3.5%	0.4%	-5.3%	6.4%	7.1%	5.2%	5.1%	-2.9%

# An excerpt from above in order of length of the SMILES, smallest number first.
4) CCCNC(=O)c1ccc2c(c1)nc1n2CCCCC1
15) N#Cc1nc(Cc2ccccc2)oc1NCCN1CCOCC1
11) Cc1ccc(C)c(NC(=O)CCN2CC(C)CC(C)C2)c1 (stereo not given)
5) CCN(CC)c1ccc(C=Nc2cc(C)cc(C)c2)c(O)c1
13) CCc1ccccc1NC(=O)CC(O)(C(=O)OC)C(F)(F)F (stereo not given)
6) c1ccc2c(Nc3nc(N4CCOCC4)c4ccccc4n3)cccc2c1
10) O=C(CSc1nnc(-c2ccc(F)cc2)o1)c1ccc2c(c1)OCCO2
18) O=C(O)CCn1c(SCc2cc(=O)n3ccccc3n2)nc2ccsc2c1=O
1) O=C(Nc1nnc(SCC(=O)N2CCOCC2)s1)C1CC(=O)N(c2ccccc2)C1 (stereo not given)
8) Cn1c(=O)[nH]c(=O)c2c1nc(N1CCCC1)n2CCSc1nc2ccccc2[nH]1
14) CCCN(CCC)CCNC(=O)C(NS(=O)(=O)c1ccc2c(c1)CCC(=O)N2)c1ccccc1 (stereo not given)
7) Cc1ccc(S(=O)(=O)Nc2ccc(C(OC(=O)c3ccccc3[N+](=O)[O-])(C(F)(F)F)C(F)(F)F)cc2)cc1
entry no.	4	15	11	5	13	6	10	18	1	8	14	7
LASV entry inh	17.0%[46.1 µM]	1.1%	nt	-10.0%	-4.7%	?	-1.7%	2.2%	4.8%[46.1 µM]	nt	-1.5%	?
MARV entry inh	nt	?	nt	19.8%	13.8%	?	-3.0%	?	-1.2%[46.1 µM]	nt	?	?
NS1 inh	nt	4.7%	-4.3%	2.6%	-5.3%	-34.0%	-6.0%	nt	9.7%	-5.9%	-2.2%	30.6%
SARS PLP yeast	nt	3.7%	-2.7%	4.7%	0.3%	-129.7%	-2.5%	1.1%	0.9%	2.7%	0.3%	-22.7%
StopGo reporter	3.2%	nt	-1.7%	-5.1%	nt	28.2µM*	-11.3%	-16.3%	-0.3%	nt	-5.2%	?
Cruzain inh noDet	0.1%	3.3%	nt	2.0%	11.2%	-8.4%	12.6µM*	nt	nt	7.2%	?	-4.2%
Cruzain inh Det	3.1%	4.7%	nt	-10.5%	5.3%	-7.6%	1.8%	nt	nt	5.6%	?	7.7%
RE007 growth inh	nt	-5.3%	-3.1%	-16.4%	-3.5%	-10.4%	-15.3%	5.2%	4.2%	nt	0.4%	15.0%

# Carrying on:
21) O=C(Nc1ccc(N2CCOCC2)cc1)c1cc2c(s1)CCCC2
22) COc1ccccc1NS(=O)(=O)c1cccc(C(=O)N/N=C/c2ccc(NC(C)=O)cc2)c1
23) COc1ccccc1NCCC(=O)OCC(=O)Nc1ccccc1Cl
24) CC[C@H](C)[C@H](NS(=O)(=O)c1ccc(C)cc1)C(=O)N1CCC(C(=O)N[C@@H](C)C(=O)O)CC1
25) Cc1nc(-c2cccc(NC(=O)Nc3ccc([N+](=O)[O-])cc3)c2)no1
26) CC(=O)c1ccc(N2CCN(S(=O)(=O)c3cc(-c4onc(C)c4C)ccc3C)CC2)cc1
27) CCCC(=O)Nc1ccc(N2CCN(S(C)(=O)=O)CC2)cc1
28) Cc1ccc(-n2c(=O)[nH]cc(C(=O)Nc3ccc4c(c3)OCO4)c2=O)cc1C
29) CCN(CC)CCC(C)OC(=O)c1ccc(O)cc1O (stereo not given)
30) CCCN(CCC)CCCNS(=O)(=O)c1cc(Br)cc2c1N(C(C)=O)CC2
entry no.	21	22	23	24	25	26	27	28	29	30
LASV entry inh	-13.8%[46.1 µM]	nt	5.1%	0.5%	?	-5.5%[46.1 µM]	14.7%	nt	15.8%	1.2%
MARV entry inh	?	nt	5.2%	3.7%	nt	nt	20.8%	nt	-0.8%[46.1 µM]	-0.9%&0.6%
NS1 inh	-3.0%	8.9%	nt	6.1%	nt	nt	-1.8%	5.9%	0.8%	-2.9%
SARS PLP yeast	-1.6%	0.4%	-17.8%	0.0%	nt	nt	-17.1%	-1.5%	21.7%	6.3%
StopGo reporter	-3.8%	-12.3%	-3.2%	-19.6%	14.1µM*	?	3.5%	-18.0%	-15.4%	1.1%
Cruzain inh noDet	nt	nt	nt	-4.6%	-20.7%	-8.0%	-2.0%	-3.2%	nt	0.3%
Cruzain inh Det	nt	nt	nt	1.9%	-18.8%	0.2%	-2.6%	-5.3%	nt	5.3%
RE007 growth inh	-29.9%	0.1%	-11.0%	6.3%	nt	nt	6.5%	3.4%	-1.2%	-6.7%
